DUX4 txn inh – blocks DUX4-driven transcriptional activation; 293T-iDUX4 ZSCAN4-Gaussia luciferase reporter, 24 h; hits give low values; activity change, negative = inhibition, % (test concentration not listed); 37,000 tested, 0.8% active;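 active means -10% or lower and over 25 points stronger than a control reporter; inconclusive means -10% or lower with a smaller gap; inactive means above -10%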;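 further: 0% = median of neutral control wells and -100% = median of positive control wells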
DUX4 txn inh difference – recorded beside DUX4 txn inh, whose call it bears; Gaussia minus Italica difference, %; measured here: selective DUX4 reporter inhibition;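 worked out from the two reporters; negative = selective loss of the DUX4 reporter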
DUX4 txn inh control – also measured in DUX4 txn inh; calls as there; activity change, negative = inhibition, %; measured here: Italica tet-on control reporter;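 0 = neutral control and -100 = positive control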
* marks the source's active call; other numbers are inactive results; ? = inconclusive; . = no result given. Some of the compounds tested. The share of hits here may be higher or lower than overall.

no.	DUX4 txn inh	molecule	DUX4 txn inh control	DUX4 txn inh difference
1	1	C[C@H](NC(=O)C[C@H]1CC[C@H]2[C@@H](COC[C@H](O)CN2Cc2cc(F)ccc2F)O1)c1ccccc1	4.4	-4
2	-2	O=C(Nc1ccccc1F)N1C[C@H]2[C@@H](c3ccccc31)[C@H](CO)N2C(=O)Nc1ccccc1	0.9	-3
3	1	CO[C@H]1CN(C)C(=O)c2cc(C#N)ccc2OCC[C@H]2CC[C@@H](OC)[C@H](CN(C)C(=O)[C@@H]1C)O2	2.8	-2
4	-6	COc1cc(CN2CC3(CCN(S(=O)(=O)c4cccs4)CC3)c3c(n(C)c4cc(OC)ccc34)[C@@H]2CO)cc(OC)c1	10	-16
5	-2	O=C(O)[C@@H]1[C@@H](CO)[C@@H]2Cn3c(ccc(-c4ccccc4)c3=O)[C@@H]2N1Cc1ccccc1F	1.6	-4
6	10	O=C(NC1CCCC1)N1CCCCN2[C@H](C1)[C@H](c1ccc(-c3cccnc3)cc1)[C@@H]2CO	13	-3
7	?	O=C(c1ccccc1)N1CC(=O)N2[C@H](CO)[C@@H](c3ccc(/C=C/c4ccccc4)cc3)[C@@H]2C1	.	.
8	1	CC(=O)N(C)C[C@H]1[C@H](c2ccc(-c3cccnc3)cc2)[C@@H](CO)N1C(=O)C1CC1	-0.5	2
9	1	C[C@H]1CN([C@@H](C)CO)C(=O)CCCn2cc(nn2)CO[C@@H]1CN(C)Cc1ccccc1C(F)(F)F	0.0	1
10	4	COc1cccc(-c2ccc(C3[C@H]4CNC[C@@H]3N4S(=O)(=O)Cc3ccccc3)cc2)c1 (some centres not stated)	6.1	-2
11	?	CCCC#Cc1ccc([C@@H]2[C@H](CO)N3C(=O)CN(C(=O)Nc4cc(F)ccc4F)C[C@@H]23)cc1	.	.
12	4	C[C@H](CO)N1C[C@H](C)[C@H](CN(C)C(=O)CCCN(C)C)OCc2cn(nn2)CCCC1=O	-3.6	7
13	2	COc1ccc2c3c(n(C)c2c1)[C@H](CO)N(C(=O)Cc1ccccn1)CC31CCN(Cc2ccccn2)CC1	11	-9
14	2	CCN(C[C@@H]1[C@@H](c2ccccc2)[C@H](CO)N1CC1CC1)C(=O)c1cccc(F)c1	3.8	-2
15	0	O=C(C[C@@H]1CC[C@@H]2[C@H](COC[C@@H](O)CN2Cc2ccc3c(c2)OCO3)O1)N1CCCCC1	4.6	-5
16	24	O=C(C1CCOCC1)N1CC(=O)N2[C@@H](CO)[C@@H](c3ccc(Br)cc3)[C@@H]2C1	9.1	15
17	2	CCCC#Cc1ccc([C@H]2[C@@H](CO)N3C(=O)CN(C(=O)Nc4cc(F)ccc4F)C[C@@H]23)cc1	-2.3	4
18	7	C[C@@H]1CN([C@H](C)CO)C(=O)c2cc(NC(=O)c3ccncc3)ccc2O[C@@H](C)CCCCO[C@@H]1CN(C)C(=O)Cc1ccccc1	-1.7	9
19	-3	COCC(=O)N1[C@H](CO)[C@@H]2c3ccccc3N(C(=O)c3ccccc3F)C[C@@H]21	-0.6	-2
20	3	O=C(C[C@@H]1C[C@@H]2c3cc(NC(=O)c4ccc5c(c4)OCO5)ccc3O[C@@H]2[C@H](CO)O1)NCC(F)(F)F	2.1	1
21	-7	C[C@@H]1CN([C@H](C)CO)C(=O)c2cc(C#C[C@@H](C)O)cnc2O[C@H]1CN(C)C(=O)CN1CCOCC1	-1.6	-5
22	8	CC(=O)N1[C@@H]2Cn3c(cccc3=O)[C@H]1[C@@H](C(=O)N1CCc3ccccc3C1)[C@@H]2CO	5.3	3
23	-1	CC(=O)N1[C@H](CO)[C@H](c2ccccc2)C12CN(C(=O)Nc1ccccc1F)C2	-0.5	-1
24	0	CCCNC(=O)C[C@@H]1CC[C@@H]2[C@H](COc3ccc(NC(=O)Cc4cccs4)cc3C(=O)N2C)O1	5.6	-6
25	?	Cc1cccc(-c2ccc([C@@H]3[C@H](CO)N4CCCCN(Cc5ccncc5)C[C@@H]34)cc2)c1	.	.
26	2	CO[C@H]1CN(C)C(=O)c2cc(NS(=O)(=O)c3ccc(F)cc3)ccc2OC[C@@H](C)NC[C@@H]1C	0.9	2
27	8	CC=Cc1ccc2n(c1=O)C[C@@H]1[C@@H](CO)[C@H](C(=O)NCc3ccccc3)N(Cc3cncnc3)[C@H]21 (mixture of isomers)	-0.2	8
28	-1	O=C(NC1Cc2ccccc2C1)[C@H]1[C@H](CO)[C@H]2Cn3c(ccc(-c4ccccc4)c3=O)[C@@H]1N2	-3.4	2
29	-5	CO[C@H](CN(C)C(=O)c1cnccn1)[C@@H](C)CN([C@@H](C)CO)S(=O)(=O)c1ccc(Cl)cc1	-1.5	-3
30	2	COc1ccc(C[C@@H]2CCn3cc(nn3)COC[C@@H](Cc3ccccc3)NC2=O)cc1	-1.6	4
31	?	O=S(=O)(c1cccs1)N1CCCCN2[C@H](C1)[C@@H](c1ccc(Br)cc1)[C@@H]2CO	.	.
32	9	O=C(Cc1cccnc1)N1CC(=O)N2[C@H](CO)[C@@H](c3ccc(-c4cccc(F)c4)cc3)[C@H]2C1	5.0	4
33	-7	CCN1[C@@H]2c3ccc(C4=CCCCC4)c(=O)n3C[C@H]1[C@H](CO)[C@H]2C(=O)N1CCc2ccccc2C1	-3.6	-3
34	4	C/C=C/c1ccc([C@H]2[C@@H](CO)N(S(C)(=O)=O)C23CN(C(=O)CC)C3)cc1	1.3	3
35	13	CN(C)C(=O)c1ccc(-c2ccc([C@H]3[C@H]4CN(C(=O)CC5CC5)CC(=O)N4[C@H]3CO)cc2)cc1	9.0	4
36	5	CC=Cc1ccc2n(c1=O)C[C@H]1[C@H](CO)[C@@H](C(=O)N3CCCCC3)N(Cc3ccccc3)[C@@H]21 (mixture of isomers)	0.4	5
37	1	COc1ccc(-c2ccc([C@H]3[C@@H](C#N)N(C(=O)C4CC4)[C@@H]3CO)cc2)cc1	2.8	-2
38	1	CCCNC(=O)C[C@@H]1CC[C@H]2[C@@H](COc3ccc(NC(=O)NC(C)C)cc3C(=O)N2C)O1	2.1	-1
39	29	CCC(=O)N1CC2(C1)CN(S(C)(=O)=O)[C@H](CO)c1c2c2ccc(OC)cc2n1C	10	19
40	?	O=C(c1cnccn1)N1CC[C@@H]2[C@H]1c1cc(-c3cccc(F)c3)ccc1N[C@@H]2CO	.	.
41	-6	O=C(C[C@@H]1CC[C@H]2[C@@H](COC[C@H](O)CN2C(=O)Nc2cc(Cl)cc(Cl)c2)O1)N1CCOCC1	-0.3	-5
42	0	O=C(C[C@@H]1CC[C@@H](NC(=O)C2CC2)[C@@H](CO)O1)Nc1ccccc1	-0.2	0
43	?	COc1cccc(S(=O)(=O)N2CC[C@H]3[C@H](CO)Nc4ccc(-c5ccc(C#N)cc5)cc4[C@H]32)c1	.	.
44	1	O=C(c1ccccc1)N1C[C@H]2[C@@H](c3ccccc31)[C@@H](CO)N2Cc1cc(F)ccc1F	8.2	-7
45	4	O=C(N[C@@H]1CC[C@@H](CC(=O)N2CCCCC2)O[C@H]1CO)c1ccccn1	1.4	3
46	0	COCC(=O)Nc1ccc2c(c1)C(=O)N(C)[C@H]1CC[C@@H](CC(=O)N3CCc4ccccc4C3)O[C@@H]1CO2	3.5	-4
47	-3	C[C@H](CO)N1C[C@H](C)[C@H](CN(C)Cc2ccc(C(F)(F)F)cc2)Oc2ccc(NC(=O)Cc3cn(C)c4ccccc34)cc2CC1=O	0.3	-3
48	-1	O=C(C[C@@H]1C[C@H]2c3cc(NC(=O)c4ccc5c(c4)OCO5)ccc3O[C@H]2[C@@H](CO)O1)NCCN1CCCCC1	-7.6	7
49	1	O=C(CCN1CCCCC1)NCC[C@H]1CC[C@H](NC(=O)Cc2cccnc2)[C@@H](CO)O1	1.8	-1
50	1	CC(C)(C)S(=O)N1Cc2cc(C(=O)Nc3ccc(-c4ccccc4)cc3)nc(-c3cccc(-c4cccc(F)c4)c3)c2[C@@H]1CCO (some centres not stated)	-3.3	4

New compounds follow.
no.	DUX4 txn inh	molecule	DUX4 txn inh control	DUX4 txn inh difference
51	0	COCC(=O)NC[C@H]1[C@H](c2ccccc2)[C@@H](CO)N1C(C)=O	1.3	-1
52	0	COc1ccccc1CNC(=O)C[C@H]1CC[C@@H]2[C@H](COc3ccc(NS(=O)(=O)c4ccc(C)cc4)cc3C(=O)N2C)O1	1.8	-1
53	-1	C[C@@H]1CCCCO[C@@H](CN(C)CC2CCCCC2)[C@@H](C)CN([C@@H](C)CO)C(=O)c2cc(NC(=O)CCC(F)(F)F)ccc2O1	-3.2	2
54	0	O=C(NCc1ccc(F)cc1)[C@H]1[C@H](CO)[C@H]2Cn3c(ccc(C4=CCCCC4)c3=O)[C@@H]1N2	-2.8	2
55	0	O=C(CN1CCOCC1)N1CC(=O)N2[C@H](CO)[C@@H](c3ccc(-c4cccc(F)c4)cc3)[C@@H]2C1	0.4	0
56	?	COc1ccc2c3c([nH]c2c1)[C@@H](CO)N(C(=O)C1CCCCC1)CC31CN(Cc2nccs2)C1	.	.
57	5	COc1cccc(C(=O)Nc2ccc3c(c2)OC[C@H](C)N(C)C[C@H](C)[C@H](OC)CN(C)C3=O)c1	-0.9	6
58	-2	COCc1cn(CC[C@H]2CC[C@@H](NC(=O)Nc3c(C)noc3C)[C@H](CO)O2)nn1	3.2	-5
59	2	CN(C)C(=O)c1ccc(-c2ccc(C3[C@@H]4CN(C(=O)Nc5ccccc5)C[C@H]3N4)cc2)cc1 (some centres not stated)	-1.4	4
60	15	C[C@H](CO)N1C[C@H](C)[C@@H](CN(C)C(=O)c2ccc(F)cc2)OCc2ccccc2-c2ccccc2C1=O	6.0	9
61	-1	Cc1noc(C)c1S(=O)(=O)N(C)C[C@H]1OCCCC[C@H](C)Oc2ccc(NC(=O)c3ccccc3)cc2C(=O)N([C@@H](C)CO)C[C@H]1C	-1.3	0
62	17	COCC(=O)N1CC[C@@H]2[C@@H](CO)N(C)c3ccc(-c4ccccc4)cc3[C@@H]21	13	4
63	-1	CN(C)C(=O)C[C@@H]1CC[C@H]2[C@@H](COc3ccc(NC(=O)c4ccc(F)cc4)cc3C(=O)N2C)O1	1.1	-2
64	2	COc1cccc(NC(=O)Nc2ccc3c(c2)C(=O)N(C)[C@@H]2CC[C@@H](CC(=O)O)O[C@H]2CO3)c1	0.0	2
65	2	O=C(C[C@H]1CC[C@@H](NC(=O)CN2CCOCC2)[C@H](CO)O1)NCCc1ccncc1	-0.2	2
66	1	Cc1cccc(S(=O)(=O)N2C[C@@H](O)COC[C@@H]3O[C@@H](CC(=O)Nc4ccccc4)CC[C@H]32)c1	-5.7	6
67	1	O=C(Nc1cccc(F)c1)N1CCCCN2[C@H](CO)[C@H](c3ccc(-c4ccncc4)cc3)[C@@H]2C1	-3.4	4
68	28	C[C@@H]1CN([C@@H](C)CO)C(=O)c2c(c3ccccc3n2C)-c2ccccc2CO[C@@H]1CN(C)Cc1ccc(C(=O)O)cc1	1.8	26
69	4	CCCN1[C@H](C(=O)NCC(F)(F)F)[C@@H](CO)[C@@H]2Cn3c(ccc(-c4ccccc4)c3=O)[C@@H]21	3.9	0
70	2	CC=Cc1ccc2n(c1=O)C[C@H]1[C@H](CO)[C@@H](C(=O)NCc3ccc4c(c3)OCO4)[C@@H]2N1C(=O)COC (mixture of isomers)	0.1	2
71	13	COc1ccc2c3c(n(C)c2c1)[C@@H](CO)N(Cc1ccccn1)CC31CN(C(=O)NC(C)C)C1	7.5	5
72	17	C[C@@H]1CN([C@H](C)CO)C(=O)c2c(c3ccccc3n2C)-c2ccccc2CO[C@@H]1CN(C)S(C)(=O)=O	2.3	15
73	-3	C[C@H](CO)N1C[C@H](C)[C@@H](CN(C)Cc2ccc(Cl)c(Cl)c2)Oc2ccc(NS(=O)(=O)c3ccccc3)cc2C1=O	-4.3	2
74	-1	CN(C)CCCNC(=O)[C@@H]1[C@@H](CO)[C@@H]2Cn3c(ccc(-c4cccc(F)c4)c3=O)[C@H]1N2	7.2	-8
75	4	O=C(CCN1CCCCC1)N[C@@H]1CC[C@@H](CCNC(=O)c2cc(Cl)cc(Cl)c2)O[C@H]1CO	-7.3	12
76	-1	COc1ccc(CNC(=O)C[C@H]2C=C[C@H](NC(=O)c3cccc(F)c3)[C@@H](CO)O2)cc1	-3.1	2
77	-1	CN1C(=O)c2cc(NC(=O)c3ccc(F)c(F)c3)ccc2OC[C@H]2O[C@H](CC(=O)N[C@@H]3CCN(Cc4ccccc4)C3)CC[C@H]21	3.8	-4
78	1	O=C(Cc1ccncc1)NCC[C@H]1CC[C@@H](NS(=O)(=O)c2ccccc2Cl)[C@@H](CO)O1	0.3	1
